Yeast UUG start – yeast start codon fidelity modulation; activity score, % at 18.7 µM; S. cerevisiae UUG-firefly luciferase reporter, luminescence/redox ratio; AID 602363; 0.13% of 350,000 active;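 active means replicate mean at a twofold rise or more, about +100% in these data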;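 further: firefly luciferase made from a UUG start codon reports start codon fidelity; reporter light over untreated wells divided by growth signal over untreated wells; some hits fall short of that in this replicate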
Env fusion inh – HIV envelope-mediated fusion inhibition. HeLa-JRFL Env/CEM21 cell fusion, luciferase. AID 651610. 1.1% of 360,000 active. inhibition, % at 12.3 µM;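 active means mean replicate inhibition score of at least 50 and every replicate individually at or above 50; inconclusive means only one of the two criteria met; inactive means mean below 50 and not all replicates reaching 50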;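 further: 0% = plate neutral controls and 100% = maraviroc near 300 nM; one replicate is shown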
Starred values were filed as active, the others as inactive; ? = inconclusive; [ ] = remark or other dose. These rows are one share of the data; count on the stated rates, not on these rows.

SMILES | Yeast UUG start | Env fusion inh
COc1ccc(S(=O)(=O)Nc2ccc3c(c2)C(=O)N([C@@H](C)CO)C[C@@H](C)[C@H](CN(C)Cc2ccc(C(F)(F)F)cc2)OCCCC[C@H](C)O3)cc1 | 8 | ?
C[C@@H]1CN([C@H](C)CO)C(=O)Cc2cc(NS(C)(=O)=O)ccc2O[C@@H]1CN(C)Cc1ccccc1 | 1 | 16[16.7 µM]
C[C@H](CO)N1C[C@H](C)[C@H](CN(C)C(=O)Nc2ccc3c(c2)OCO3)Oc2ncc(C#Cc3ccc(C(F)(F)F)cc3)cc2C1=O | 34 | 55[16.7 µM]
Cc1noc(C)c1NC(=O)Nc1ccc2c(c1)C(=O)N([C@@H](C)CO)C[C@@H](C)[C@@H](CN(C)C(=O)Nc1ccccc1)O2 | -12 | -18[16.7 µM]
O=C(C[C@@H]1CC[C@@H]2[C@H](COC[C@H](O)CN2S(=O)(=O)c2ccccc2)O1)N1CCOCC1 | -4 | 8[16.7 µM]
Cc1ccccc1-c1ccc2c(c1)O[C@H](CN(C)C)[C@@H](C)CN([C@H](C)CO)S2(=O)=O | 10 | -11[16.7 µM]
C[C@H](CO)N1C[C@H](C)[C@H](CN(C)S(C)(=O)=O)Oc2ccc(NC(=O)CCN3CCOCC3)cc2C1=O | 19 | -1[16.7 µM]
CN(C)C(=O)C[C@H]1C[C@H]2c3cc(NC(=O)C4CCOCC4)ccc3O[C@H]2[C@H](CO)O1 | 8 | 2[16.7 µM]
CCCN1C[C@H](C)[C@H](OC)CN(C)C(=O)c2ccc(NC(=O)C3CCOCC3)cc2OC[C@H]1C | -2 | -13[16.7 µM]
COc1ccc(S(=O)(=O)Nc2ccc3c(c2)CC(=O)N([C@H](C)CO)C[C@H](C)[C@@H](CN(C)Cc2ccc(Cl)c(Cl)c2)O3)cc1 | 15 | 23[16.7 µM]
C[C@@H]1CN([C@@H](C)CO)C(=O)c2cc(NC(=O)Nc3ccc(F)cc3)ccc2O[C@H]1CN(C)C(=O)Nc1ccc(F)cc1 | 1 | -11[16.7 µM]
O=C(C[C@@H]1CC[C@@H]2[C@H](COC[C@H](O)CN2S(=O)(=O)c2cccc(Cl)c2)O1)NC1Cc2ccccc2C1 | 10 | -5[16.7 µM]
Cc1noc(C)c1S(=O)(=O)N(C)C[C@H]1OCCCC[C@@H](C)Oc2ccc(NS(=O)(=O)c3ccc(Cl)cc3)cc2C(=O)N([C@@H](C)CO)C[C@H]1C | -11 | 10[16.7 µM]
COCC#Cc1ccc2c(c1)O[C@H](CN(C)Cc1ccccc1F)[C@@H](C)CN([C@H](C)CO)S2(=O)=O | -3 | -12[16.7 µM]
COc1ccc(S(=O)(=O)N[C@H]2CC[C@H](CCn3cc(C(C)C)nn3)O[C@H]2CO)cc1 | -2 | 6[16.7 µM]
C[C@@H]1CN([C@H](C)CO)C(=O)c2cc(-c3cncnc3)cnc2O[C@@H]1CN(C)C(=O)Cc1cccnc1 | 12 | -10[16.7 µM]
C[C@@H]1CN([C@@H](C)CO)C(=O)c2cc(C3=CCCCC3)cnc2O[C@@H]1CN(C)C(=O)c1ccncc1 | -2 | -2[16.7 µM]
Cc1noc(C)c1S(=O)(=O)Nc1ccc2c(c1)C(=O)N([C@H](C)CO)C[C@H](C)[C@H](CN(C)C(=O)CCCN(C)C)OCCCC[C@@H](C)O2 | -12 | 3[16.7 µM]
O=C(C[C@@H]1CC[C@@H](NC(=O)Nc2ccccc2)[C@@H](CO)O1)NCc1cccc(F)c1 | -6 | 1[16.7 µM]
CC(C)NC(=O)N(C)C[C@H]1Oc2ncc(-c3ccc(C(=O)N(C)C)cc3)cc2C(=O)N([C@H](C)CO)C[C@@H]1C | -9 | -24[16.7 µM]
O=C(C[C@@H]1CC[C@H](NC(=O)c2cccnc2)[C@@H](CO)O1)NCCN1CCCCC1 | -3 | -7[16.7 µM]
CCC(=O)N(C)C[C@@H]1Oc2ncc(-c3ccc(C#N)cc3)cc2C(=O)N([C@@H](C)CO)C[C@H]1C | -7 | -8[16.7 µM]
COc1ccc(NC(=O)N(C)C[C@H]2OCCCC[C@H](C)Oc3ccc(NC(=O)CCCN(C)C)cc3C(=O)N([C@@H](C)CO)C[C@@H]2C)cc1 | 19 | -13[16.7 µM]
COc1ccc(S(=O)(=O)Nc2ccc3c(c2)C(=O)N([C@@H](C)CO)C[C@H](C)[C@H](CN(C)Cc2ccncc2)OCCCC[C@H](C)O3)cc1 | 13 | -3[16.7 µM]
C[C@@H]1CN([C@@H](C)CO)C(=O)Cc2cc(NC(=O)Cc3ccccc3)ccc2O[C@@H]1CN(C)C(=O)NC1CCCCC1 | 13 | -2[16.7 µM]

Laid out differently: results already given.
Yeast UUG start | Env fusion inh | SMILES
-12 | 3[16.7 µM] | Cc1noc(C)c1S(=O)(=O)Nc1ccc2c(c1)C(=O)N([C@H](C)CO)C[C@H](C)[C@H](CN(C)C(=O)CCCN(C)C)OCCCC[C@@H](C)O2
-6 | 1[16.7 µM] | O=C(C[C@@H]1CC[C@@H](NC(=O)Nc2ccccc2)[C@@H](CO)O1)NCc1cccc(F)c1
-9 | -24[16.7 µM] | CC(C)NC(=O)N(C)C[C@H]1Oc2ncc(-c3ccc(C(=O)N(C)C)cc3)cc2C(=O)N([C@H](C)CO)C[C@@H]1C
-3 | -7[16.7 µM] | O=C(C[C@@H]1CC[C@H](NC(=O)c2cccnc2)[C@@H](CO)O1)NCCN1CCCCC1
-7 | -8[16.7 µM] | CCC(=O)N(C)C[C@@H]1Oc2ncc(-c3ccc(C#N)cc3)cc2C(=O)N([C@@H](C)CO)C[C@H]1C
19 | -13[16.7 µM] | COc1ccc(NC(=O)N(C)C[C@H]2OCCCC[C@H](C)Oc3ccc(NC(=O)CCCN(C)C)cc3C(=O)N([C@@H](C)CO)C[C@@H]2C)cc1
13 | -3[16.7 µM] | COc1ccc(S(=O)(=O)Nc2ccc3c(c2)C(=O)N([C@@H](C)CO)C[C@H](C)[C@H](CN(C)Cc2ccncc2)OCCCC[C@H](C)O3)cc1
13 | -2[16.7 µM] | C[C@@H]1CN([C@@H](C)CO)C(=O)Cc2cc(NC(=O)Cc3ccccc3)ccc2O[C@@H]1CN(C)C(=O)NC1CCCCC1

Later entries:
SMILES | Yeast UUG start | Env fusion inh
C[C@@H]1CN([C@H](C)CO)C(=O)c2cccc(NC(=O)Nc3ccc(F)cc3)c2O[C@@H]1CN(C)C(=O)NC1CCCCC1 | 10 | -2[16.7 µM]
CCc1csc(N2[C@H](CO)[C@@H](c3ccc(-c4ccc(F)cc4)cc3)[C@@H]2C#N)n1 | -13 | 9[16.7 µM]
COc1ccccc1C(=O)Nc1ccc2c(c1)C(=O)N(C)C[C@@H](OC)[C@H](C)CN(C(C)=O)[C@H](C)CO2 | 6 | 14[16.7 µM]
Cc1noc(C)c1NC(=O)N(C)C[C@H]1OCCCC[C@@H](C)Oc2ccc(NC(=O)Cc3ccccc3)cc2C(=O)N([C@@H](C)CO)C[C@@H]1C | 17 | -2[16.7 µM]
C[C@@H]1CCCCO[C@H](CN(C)Cc2ccncc2)[C@H](C)CN([C@@H](C)CO)C(=O)c2cc(NC(=O)c3ccccc3)ccc2O1 | -3 | -131[16.7 µM]
Cc1ccc(S(=O)(=O)Nc2ccc3c(c2)C(=O)N([C@H](C)CO)C[C@H](C)[C@H](CN(C)S(C)(=O)=O)O3)cc1 | -10 | 9[16.7 µM]
O=C1O[C@H](c2ccccc2)[C@H](c2ccccc2)N2[C@H]1[C@@H](C(=O)N1CCCCCCC1)[C@]1(C(=O)Nc3ccc(C#CC4(O)CCCCCC4)cc31)[C@H]2c1ccccc1OCCO | -4 | ?
C[C@H]1CN([C@@H](C)CO)C(=O)Cc2cc(NC(=O)NC3CCCCC3)ccc2O[C@H]1CN(C)Cc1ccc(-c2ccccc2)cc1 | -3 | 16[16.7 µM]
C[C@@H]1CN([C@H](C)CO)C(=O)c2cc(C#Cc3cccnc3)cnc2O[C@H]1CN(C)C(=O)CN(C)C | -3 | -21[16.7 µM]
Cc1noc(C)c1NC(=O)Nc1ccc2c(c1)C(=O)N([C@@H](C)CO)C[C@H](C)[C@@H](CN(C)CC1CCCCC1)OCCCC[C@H](C)O2 | 22 | -4[16.7 µM]
Cc1ccc(S(=O)(=O)Nc2cccc3c2O[C@@H](CN(C)S(=O)(=O)c2cn(C)cn2)[C@@H](C)CN([C@H](C)CO)C3=O)cc1 | 8 | 8[16.7 µM]
C[C@@H]1CN([C@@H](C)CO)C(=O)c2cccc(NC(=O)c3nc4ccccc4s3)c2O[C@H]1CN(C)C(=O)Nc1ccccc1 | 23 | 2[16.7 µM]
O=C(Nc1ccccc1)Nc1ccc2c(c1)[C@@H]1C[C@@H](CC(=O)N3CCOCC3)O[C@H](CO)[C@@H]1O2 | -14 | 12[16.7 µM]
C[C@@H]1CCCCO[C@@H](CN(C)Cc2ccncc2)[C@H](C)CN([C@H](C)CO)C(=O)c2cc(N(C)C)ccc2O1 | 17 | 12[16.7 µM]
CCc1cnc(N2[C@H](C#N)[C@H](c3ccc(C4=CCCC4)cc3)[C@H]2CO)s1 | 10 | 8[16.7 µM]
CC(C)NC(=O)Nc1ccc2c(c1)C(=O)N([C@H](C)CO)C[C@@H](C)[C@H](CN(C)Cc1ccc(C(F)(F)F)cc1)OCCCC[C@H](C)O2 | 11 | 21[16.7 µM]
C[C@H](CO)N1C[C@H](C)[C@@H](CN(C)S(=O)(=O)c2ccc(Cl)cc2)Oc2c(NS(=O)(=O)c3ccccc3)cccc2C1=O | -13 | -16[16.7 µM]
CCCN(C)C[C@H]1Oc2ncc(C#CCOC)cc2C(=O)N([C@@H](C)CO)C[C@H]1C | 17 | -12[16.7 µM]
COc1ccc(S(=O)(=O)Nc2ccc3c(c2)CC(=O)N([C@H](C)CO)C[C@@H](C)[C@H](CN(C)C(=O)Nc2ccc(F)cc2)O3)cc1 | 5 | -12[16.7 µM]
CCCNC(=O)C[C@H]1CC[C@H]2[C@H](COc3ccc(NC(=O)CC)cc3C(=O)N2C)O1 | 3 | -23[16.7 µM]
C[C@H]1CCCCO[C@@H](CN(C)C(=O)Nc2ccc3c(c2)OCO3)[C@@H](C)CN([C@@H](C)CO)C(=O)c2cc(NC(=O)Nc3ccc(F)cc3)ccc2O1 | 2 | -28[16.7 µM]
O=C(C[C@H]1CC[C@@H](NC(=O)c2ccccn2)[C@H](CO)O1)NCc1cccc(F)c1 | -10 | -8[16.7 µM]
C[C@H](CO)N1C[C@H](C)[C@H](CN(C)Cc2ccc(C(F)(F)F)cc2)Oc2ccc(NC(=O)Nc3ccc4c(c3)OCO4)cc2CC1=O | -2 | 27[16.7 µM]
CN(Cc1ccccc1)CC1CC(c2ccccc2)OC(c2ccc(NC(=O)CCCCCCC(=O)O)cc2)O1 (stereo unspecified) | 4 | -6[16.7 µM]
COc1ccc(-c2cnc3c(c2)C(=O)N([C@H](C)CO)C[C@H](C)[C@H](CN(C)Cc2ccc4c(c2)OCO4)O3)cc1 | 2 | 6[16.7 µM]
SMILES | Yeast UUG start | Env fusion inh
CCCC(=O)Nc1ccc2c(c1)C(=O)N(C)C[C@H](OC)[C@@H](C)CN(C(=O)c1ccccc1F)[C@H](C)CO2 | -7 | 11[16.7 µM]
CN1C(=O)c2cc(NS(=O)(=O)c3ccc(F)cc3)ccc2OC[C@@H]2O[C@@H](CC(=O)O)CC[C@H]21 | -15 | -7[16.7 µM]
C[C@H](CO)N1C[C@H](C)[C@H](CN(C)Cc2cccnc2)Oc2ncc(C#CC3(O)CCCC3)cc2C1=O | 15 | -14[16.7 µM]
O=C(C[C@H]1C=C[C@@H](NC(=O)Nc2ccc(C(F)(F)F)cc2)[C@H](CO)O1)NCc1cc(F)cc(F)c1 | 3 | -4[16.7 µM]
C[C@@H]1CN([C@@H](C)CO)C(=O)c2cc(C#CCC3CCCC3)cnc2O[C@H]1CN(C)Cc1ccccn1 | 14 | 17[16.7 µM]
COc1cccc(S(=O)(=O)Nc2ccc3c(c2)[C@H]2C[C@@H](CC(=O)O)O[C@H](CO)[C@H]2O3)c1 | 37* | -25[16.7 µM]
C[C@H](CO)N1C[C@H](C)[C@@H](CN(C)C(=O)Nc2ccccc2)OCCCC[C@H](C)Oc2ccc(NC(=O)C3CCCCC3)cc2C1=O | 7 | -1[16.7 µM]
Cc1ccc(S(=O)(=O)Nc2ccc3c(c2)C(=O)N([C@H](C)CO)C[C@@H](C)[C@H](CN(C)C(=O)Nc2ccccc2)OCCCC[C@@H](C)O3)cc1 | -7 | -76[16.7 µM]
CC(C)c1cn(CC[C@@H]2CC[C@@H](NC(=O)Nc3cc(Cl)cc(Cl)c3)[C@H](CO)O2)nn1 | -18 | -9[16.7 µM]
C[C@@H]1CCCCO[C@@H](CN(C)C(=O)NC2CCCCC2)[C@H](C)CN([C@@H](C)CO)C(=O)c2cc(NC(=O)Nc3ccc4c(c3)OCO4)ccc2O1 | -8 | 18[16.7 µM]
C[C@@H]1CN([C@@H](C)CO)C(=O)c2cc(/C=C/c3ccccc3)cnc2O[C@H]1CN(C)C(=O)CN1CCOCC1 | -5 | 1[16.7 µM]
C[C@H](O)C#Cc1cnc2c(c1)C(=O)N([C@H](C)CO)C[C@@H](C)[C@H](CN(C)C(=O)c1ccccc1)O2 | 0 | 3[16.7 µM]
C[C@@H]1CN([C@H](C)CO)C(=O)Cc2cc(NS(=O)(=O)c3ccc(F)cc3)ccc2O[C@@H]1CN(C)S(=O)(=O)c1ccc(Cl)cc1 | -1 | -80[16.7 µM]
C[C@H](CO)N1C[C@H](C)[C@H](CN(C)CC2CCCCC2)Oc2c(NS(=O)(=O)c3ccccc3)cccc2C1=O | 6 | -35[16.7 µM]
C[C@@H]1CN([C@@H](C)CO)C(=O)c2cc(NC(=O)C3CCCCC3)ccc2O[C@@H]1CN(C)C(=O)Nc1cccc2ccccc12 | 9 | 13[16.7 µM]
Cc1noc(C)c1NC(=O)Nc1ccc2c(c1)CC(=O)N([C@@H](C)CO)C[C@@H](C)[C@@H](CN(C)S(=O)(=O)c1c(C)noc1C)O2 | 1 | 12[16.7 µM]
